Screening results from PubChem BioAssay.
nsP2pro inh – inhibitors of chikungunya virus nsP2 protease. actives 1.1% (n = 31,000). Potency, µM (doses to about 24.9 µM), for inactives: at the highest dose activity change, negative = inhibition, actives largely listed as inhibitors. FRET peptide cleavage, nsP2pro, fluorescence 1 h. Q8JUX6; active means well fitted inhibition curve with a large enough effect; inconclusive means small, poorly fitted or top-dose-only effect; inactive means no such curve, though single readings can be large or run the other way; further: nearly all actives have a fitted effect of over 60% in size; a reference inhibitor and vehicle were the controls
Target sequence (Q8JUX6 whole entry, looked up): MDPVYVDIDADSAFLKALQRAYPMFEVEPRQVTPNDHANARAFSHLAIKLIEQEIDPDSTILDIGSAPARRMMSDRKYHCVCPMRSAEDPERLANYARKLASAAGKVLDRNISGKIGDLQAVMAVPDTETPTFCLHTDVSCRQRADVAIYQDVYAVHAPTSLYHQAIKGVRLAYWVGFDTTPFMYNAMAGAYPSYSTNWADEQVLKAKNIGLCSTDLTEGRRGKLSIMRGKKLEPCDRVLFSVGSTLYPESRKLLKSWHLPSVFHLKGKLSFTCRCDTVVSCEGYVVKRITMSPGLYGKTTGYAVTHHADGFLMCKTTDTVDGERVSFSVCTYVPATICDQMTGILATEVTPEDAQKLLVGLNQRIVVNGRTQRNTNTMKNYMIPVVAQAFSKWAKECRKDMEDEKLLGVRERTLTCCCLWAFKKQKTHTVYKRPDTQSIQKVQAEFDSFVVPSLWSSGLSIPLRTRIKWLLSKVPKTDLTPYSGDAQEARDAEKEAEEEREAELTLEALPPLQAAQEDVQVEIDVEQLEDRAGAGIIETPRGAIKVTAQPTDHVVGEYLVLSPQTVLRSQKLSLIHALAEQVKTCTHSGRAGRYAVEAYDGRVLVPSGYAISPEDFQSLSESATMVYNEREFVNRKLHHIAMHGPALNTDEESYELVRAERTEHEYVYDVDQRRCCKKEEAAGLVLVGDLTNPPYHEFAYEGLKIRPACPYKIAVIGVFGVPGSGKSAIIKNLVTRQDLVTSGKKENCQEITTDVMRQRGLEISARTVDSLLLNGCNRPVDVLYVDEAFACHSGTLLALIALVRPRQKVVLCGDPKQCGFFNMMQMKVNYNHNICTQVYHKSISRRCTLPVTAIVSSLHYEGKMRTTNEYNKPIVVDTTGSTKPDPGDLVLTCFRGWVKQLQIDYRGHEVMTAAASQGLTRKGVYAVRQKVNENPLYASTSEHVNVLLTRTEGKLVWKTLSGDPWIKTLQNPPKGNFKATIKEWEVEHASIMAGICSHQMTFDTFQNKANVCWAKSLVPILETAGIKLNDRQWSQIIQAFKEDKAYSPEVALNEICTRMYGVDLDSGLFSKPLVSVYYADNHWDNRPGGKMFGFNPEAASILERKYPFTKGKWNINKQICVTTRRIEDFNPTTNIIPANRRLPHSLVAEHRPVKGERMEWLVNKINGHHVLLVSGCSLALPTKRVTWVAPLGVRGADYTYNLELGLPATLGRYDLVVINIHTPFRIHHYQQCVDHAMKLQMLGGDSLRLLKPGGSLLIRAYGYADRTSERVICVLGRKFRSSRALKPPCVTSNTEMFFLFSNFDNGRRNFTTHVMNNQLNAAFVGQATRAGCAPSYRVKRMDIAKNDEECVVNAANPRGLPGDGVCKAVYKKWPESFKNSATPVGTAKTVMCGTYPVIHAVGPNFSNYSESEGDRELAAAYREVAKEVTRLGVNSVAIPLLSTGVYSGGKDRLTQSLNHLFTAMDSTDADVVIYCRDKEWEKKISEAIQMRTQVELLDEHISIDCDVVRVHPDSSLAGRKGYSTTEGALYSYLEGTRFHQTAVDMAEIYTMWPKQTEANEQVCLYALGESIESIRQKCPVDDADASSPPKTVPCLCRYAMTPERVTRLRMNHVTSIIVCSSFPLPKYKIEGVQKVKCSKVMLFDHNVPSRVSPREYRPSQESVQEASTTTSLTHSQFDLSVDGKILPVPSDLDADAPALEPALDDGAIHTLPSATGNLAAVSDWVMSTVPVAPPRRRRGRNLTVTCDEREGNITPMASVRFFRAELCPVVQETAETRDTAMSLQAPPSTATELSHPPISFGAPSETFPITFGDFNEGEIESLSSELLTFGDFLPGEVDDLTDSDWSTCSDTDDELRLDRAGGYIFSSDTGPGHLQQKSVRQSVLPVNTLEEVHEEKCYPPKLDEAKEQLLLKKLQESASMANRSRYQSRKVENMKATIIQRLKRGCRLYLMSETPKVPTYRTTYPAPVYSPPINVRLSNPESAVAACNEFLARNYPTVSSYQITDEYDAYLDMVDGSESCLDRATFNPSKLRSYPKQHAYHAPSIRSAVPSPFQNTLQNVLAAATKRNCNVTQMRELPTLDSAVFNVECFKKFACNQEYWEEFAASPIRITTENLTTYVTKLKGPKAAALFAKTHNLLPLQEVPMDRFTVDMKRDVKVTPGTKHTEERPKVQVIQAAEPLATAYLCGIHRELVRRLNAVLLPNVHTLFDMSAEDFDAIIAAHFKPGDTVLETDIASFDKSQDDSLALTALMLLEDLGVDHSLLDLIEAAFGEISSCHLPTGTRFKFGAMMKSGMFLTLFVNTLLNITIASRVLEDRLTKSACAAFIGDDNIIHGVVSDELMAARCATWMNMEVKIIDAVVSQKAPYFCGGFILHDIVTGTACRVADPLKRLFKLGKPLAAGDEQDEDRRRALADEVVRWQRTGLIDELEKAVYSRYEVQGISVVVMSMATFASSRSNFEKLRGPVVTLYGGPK
An asterisk follows results filed as active; i = inactive; ? = inconclusive; [ ] = dose if it differs, or a comment. On the % scale 0 is the no-effect control and ±100 the full control effect; potency means the concentration at half of the fitted maximal effect. Not all compounds are listed (hit frequency here may not be typical).

SMILES	nsP2pro inh
CCc1ccc2c(c1)c(=O)c(C(=O)c1ccc(C)cc1)cn2CC(=O)Nc1ccccc1C	-12.7%
Cc1nc(-c2ccccc2)cc([C@H]2CN3CC[C@H]2C[C@@H]3CNS(C)(=O)=O)n1	?
Cc1noc(C)c1-c1cc(O)cc(C(O)c2ccccc2)c1 (configuration not stated)	-4.8%
COc1cccc(N2CCN(Cc3cc(=O)oc4cc(C)ccc34)CC2)c1	-17.4%
Cc1nn(CCC#N)c(C)c1[C@@H]1C=C[C@@H](NC(=O)Nc2ccc(Cl)cc2)C1	?
COc1ccc(CNC(=O)CN2C(=O)CCn3nc(-c4cn(C)c5ccccc45)cc32)cc1	-9.4%
CCOC(=O)C1CCCN(C(=O)CCS(=O)(=O)c2cc3c(cc2Cl)NC(=O)CO3)C1 (configuration not stated)	-13.6%
Cc1cc(C)c2c(c1)c(C)cc1nnc(SCC(=O)c3ccc(F)cc3)n12	-25.2%
Cc1onc(-c2c(F)cccc2Cl)c1C(=O)N[C@@H]1C(=O)N2[C@@H]1SC(C)(C)[C@@H]2C(=O)O	-16.1%
O=c1[nH]c2ccc(Cl)cc2c(N[C@@H]2CN3CCC2CC3)c1-c1nc2ccccc2[nH]1	44.2%[activator]
NC(=O)[C@@H](Cc1c[nH]c2ccccc12)NC(=O)C1=C[C@@H](NS(=O)(=O)c2cccs2)[C@@H](O)[C@H](O)C1	-10.4%
CC1Cc2ccccc2N1C(=O)CSc1nc2ccc(NC(=O)COc3ccccc3)cc2s1 (configuration not stated)	-24.9%
Oc1ccc(Nc2ccccc2F)c2cccnc12	i
CCOC(=O)c1ccc(NC(=O)CN(c2ccc(C)cc2)S(=O)(=O)c2ccc(OC)cc2)cc1	-13.4%
Cc1ccc2sc(N(Cc3cccnc3)C(=O)CCS(=O)(=O)c3ccccc3)nc2c1C	-11.5%
CCOC(=O)C(C)Nc1ncnc2onc(C)c12 (configuration not stated)	-13.7%
CCC(NS(=O)(=O)c1cc(-n2cccn2)ccc1OC)C1CC(O)C1 (configuration not stated)	0.9%
CN1C(=O)c2ccccc2NC(=O)C1Cc1ccccc1 (configuration not stated)	?
C=C(C(=O)O)[C@H]1C[C@]2(C)[C@@H](O)CC[C@]23O[C@H]1C[C@@H]3C	51.8%[activator]
COC[C@H]1NC(=O)CC[C@H]1C(=O)N1CCCc2ccccc21	-2.5%
Cc1ccc(N2CC(NC(=O)/C=C\c3ccc4c(c3)OCO4)CC2=O)cc1 (configuration not stated)	-18.8%
CCCN(CCC)C(=O)c1coc(COc2ccc3sc(C)nc3c2)n1	4.8%
CC1=C[C@@H](CNS(C)(=O)=O)[C@H](C(C)C)C[C@H]1CC(=O)Nc1ccccn1	?
Cc1cn2nc(C(=O)N3CCC(C(=O)NCc4ccccn4)CC3)cc2c(=O)[nH]1	i
COc1c2ccoc2cc2oc(CO[C@@H]3O[C@H](CO)[C@@H](O)[C@H](O)[C@H]3O)cc(=O)c12	17.6%
COc1cccc(-c2nc3cnccn3c2NCCC(=O)N2CCN(C(C)C)CC2)c1	-0.8%
O=C1c2ccccc2-c2nc3nnnn3nc21 (tested in a mixture with another compound)	?
CCOC(=O)c1ccc(NC(=O)C(C)N(c2ccc(OCC)cc2)S(C)(=O)=O)cc1 (configuration not stated)	-25.7%
COc1ccc(CN2CCCCC23Cc2ccccc2CN(C(C)=O)C3)cc1 (configuration not stated)	2.5%
CN(Cc1cccc(C(F)(F)F)c1)Cc1nc(-c2ccccc2)no1	i

The final seven records of the part before open the next one.
SMILES	nsP2pro inh
Cc1cn2nc(C(=O)N3CCC(C(=O)NCc4ccccn4)CC3)cc2c(=O)[nH]1	i
COc1c2ccoc2cc2oc(CO[C@@H]3O[C@H](CO)[C@@H](O)[C@H](O)[C@H]3O)cc(=O)c12	17.6%
COc1cccc(-c2nc3cnccn3c2NCCC(=O)N2CCN(C(C)C)CC2)c1	-0.8%
O=C1c2ccccc2-c2nc3nnnn3nc21 (tested in a mixture with another compound)	?
CCOC(=O)c1ccc(NC(=O)C(C)N(c2ccc(OCC)cc2)S(C)(=O)=O)cc1 (configuration not stated)	-25.7%
COc1ccc(CN2CCCCC23Cc2ccccc2CN(C(C)=O)C3)cc1 (configuration not stated)	2.5%
CN(Cc1cccc(C(F)(F)F)c1)Cc1nc(-c2ccccc2)no1	i
CCOC(=O)c1c(C)oc2nc(C)nc(NCCCN3CCN(c4ccc(F)cc4)CC3)c12	-5.0%
O=C1NC(=O)c2cc(Nc3ccccc3)c(Nc3ccccc3)cc21	30.9%
CN(C(=O)CSc1nc2ccc(NC(=O)CCc3ccccc3)cc2s1)c1ccccc1	-5.7%
C=C1C(=O)OC2CC(C)=C(C(C)CCCO[C@@H]3O[C@H](CO)[C@@H](O)[C@H](O)[C@H]3O)C(O)C12 (some centres not stated)	19.1%[10 µM]
CN1CCN(C(CN)C2CCCCC2)CC1 (configuration not stated)	i
CCN1CCN(C(=O)C2CCCN(Cc3cccnc3)CCC(=O)NCC2)CC1 (configuration not stated)	2.0%
Cc1ccc(CNC(=O)c2ccc(CS(=O)(=O)c3ccccc3C)o2)cc1	-14.8%
CC(=O)O[C@H]1C[C@@H]2[C@]3(CC[C@]4(C)[C@@H](C5(C)CCC(C(C)(C)O)O5)[C@@H](O)C[C@@]24C)C[C@@]32CC[C@H](O[C@@H]3OC[C@@H](O)[C@H](O)[C@H]3O)C(C)(C)[C@H]12 (some centres not stated)	5.8%[10 µM]
COCc1cn(C[C@H]2C[C@@H](NC(=O)c3ccc(C#N)cc3)[C@H](O)[C@@H]2O)nn1	-9.7%[39.2 µM]
Cc1occc1C(=O)N1CC(F)(F)C[C@H]1c1nnc(C2CC2)o1	?
O=C(NC1CCCC1)c1ccc(CSc2nc3cccnc3n2Cc2ccc(F)cc2)cc1	6.0%
CCCCC1CCC(c2nc(-c3ccncc3)no2)CC1 (configuration not stated)	7.7%
COc1cc(O)c(C(CC(=O)N2CCC(c3ccccc3)CC2)c2ccc(C)cc2)c(OC)c1 (configuration not stated)	-3.8%[39.2 µM]
CN(C)c1ccc2ncc(Nc3ccc(Cl)cn3)n2n1	?
COc1cc(OC)cc(-c2onc(C)c2C(=O)NCCC(c2ccccc2)c2ccccc2)c1	0.9%
C#CC1(O)CC[C@H]2[C@@H]3CCC4=CCCC[C@@H]4[C@H]3CC[C@@]21C (some centres not stated)	4.9%
Cc1nn(C)c2c1c(-c1ccccc1)cc(=O)n2Cc1ccc(Cl)cc1	-26.6%
COc1cc(NS(=O)(=O)c2cc3[nH]c(=O)[nH]c3cc2C)cc(OC)c1OC	-11.9%
Cc1cccc(CN2CC(Oc3cccc(C(=O)NCC4CC4)c3)C2)c1	i
O=C(c1ccc2c(c1)N(Cc1c(F)cccc1Cl)C(=O)c1ccccc1S2)N1CCCC1	-2.6%

Structures shown so far with a COOH group (two):
SMILES	nsP2pro inh
Cc1onc(-c2c(F)cccc2Cl)c1C(=O)N[C@@H]1C(=O)N2[C@@H]1SC(C)(C)[C@@H]2C(=O)O	-16.1%
C=C(C(=O)O)[C@H]1C[C@]2(C)[C@@H](O)CC[C@]23O[C@H]1C[C@@H]3C	51.8%[activator]

Additional records follow.
> Cc1oc2c(c1C(=O)N1CCOCC1)CN(C(=O)c1ccncc1)CC2
- nsP2pro inh: -25.2%
> COc1ccc(-n2ncc3c2CC(C)(C)CC3NC(=O)c2cc(C)[nH]n2)cc1 (configuration not stated)
- nsP2pro inh: i
> COc1cc(CNC(=O)CSCc2nc3cccnc3n2C2CCCCC2)cc(OC)c1OC
- nsP2pro inh: -17.9%
> CCOP(=S)(OCC)Oc1ccc2c(C)c(Cl)c(=O)oc2c1
- nsP2pro inh: 20.6%
> O=C1CSC2(CCN(CCCN3c4ccccc4Sc4ccc(Cl)cc43)CC2)N1
- nsP2pro inh: 9.3%
> CC1(C)CC[C@]2(C(=O)O[C@@H]3O[C@H](CO)[C@@H](O)[C@H](O)[C@H]3O)CC[C@]3(C)C(=CCC4[C@@]5(C)C[C@@H](O)[C@H](O)C(C)(C)C5[C@H](O)C[C@]43C)[C@@H]2[C@@H]1O (some centres not stated)
- nsP2pro inh: 13.5%[10 µM]
> CC(=O)c1sc(NC(=O)c2c(-c3ccccc3)c(-c3ccccc3)nn(C)c2=O)nc1C
- nsP2pro inh: -24.7%
> CCCNC(=O)CCSc1nc(-c2ccc3c(c2)OCO3)cc(C(F)(F)F)n1
- nsP2pro inh: -31.8%
> CC(C)[C@@H](C)/C=C/[C@@H](C)[C@H]1CC[C@H]2C3=CC=C4C[C@@H](O)CC[C@]4(C)[C@H]3CC[C@]12C
- nsP2pro inh: -7.5%[10 µM]
> O=C(C1CCCN(S(=O)(=O)c2ccc(Br)s2)C1)N1CCN(c2ccccc2)CC1 (configuration not stated)
- nsP2pro inh: -17.1%
> COc1ccccc1/C=C/C(=O)NCCc1nc2ccccc2n1CCOc1ccc(C)cc1
- nsP2pro inh: -0.4%
> CCOC(=O)Cn1c(=O)n(-c2ccccc2OC)c2nc(-c3ccccc3)nc(C(N)=O)c21
- nsP2pro inh: 1.3%
> NCCS[As](SCCN)c1ccc(Nc2nc(N)nc(N)n2)cc1
- nsP2pro inh: 35.5%[activator]
> CC1(C)OC[C@H](NC(=O)Nc2ccc(Br)cc2Br)[C@H](c2ccccc2)O1
- nsP2pro inh: 7.5%
> NCCOCCOCCNC(=O)Cc1ccc(Nc2nc(NCc3ccc(F)cc3)nc(NCC3CCCCC3)n2)cc1
- nsP2pro inh: 239.2%[activator]

> CCC(Oc1ccccc1)C(=O)Nc1cc(-c2ccccc2OC)nn1-c1ccccc1 (configuration not stated)
- nsP2pro inh: -13.6%
> O=C1NC2(CCN(Cc3ccccc3)C2)COc2ccccc21 (configuration not stated)
- nsP2pro inh: i
> CC(=O)O[C@@H]1CC2C(C)(C)C(=O)C=C[C@]2(C)C2CC[C@]3(C)C(=CC(=O)[C@@H]3c3ccoc3)[C@@]21C (some centres not stated)
- nsP2pro inh: ?
> COc1ccc(/C=C/C(=O)Nc2sc3c(c2C(N)=O)CCC(C)C3)cc1OC (configuration not stated)
- nsP2pro inh: -17.1%
> CC(=O)/C=C/C=C1/C2CCC(C2)C1(C)C (configuration not stated)
- nsP2pro inh: -8.2%
> CC(=O)Nc1ccc(S(=O)(=O)N2CCN(c3ccc(C)c(C)c3)CC2)cc1
- nsP2pro inh: -15.6%
> CCN(CC)CC[C@H]1CN(C(=O)C2CC2)CC[C@H]1CC(=O)O
- nsP2pro inh: -8.2%[39.2 µM]
> COc1ccc(CCc2nc3cc(-c4c(C)noc4C)ccc3n2C[C@H](C)N2CCOCC2)cc1Cl
- nsP2pro inh: 8.7%
> O=C(O)C1=NOC2CN(Cc3nc4ccccc4s3)CC12 (configuration not stated)
- nsP2pro inh: ?
> COc1ccc(C(=O)N2CCN(CCCn3nc4n(c3=O)CCCC4)CC2)cc1
- nsP2pro inh: -7.5%
> Cc1cc(C(=O)NCC2CCCN(Cc3nnc(-c4cccnc4)o3)C2)no1 (configuration not stated)
- nsP2pro inh: 0.6%
> CCOC(=O)NNc1ccc(N(CC)CC(C)O)nn1 (configuration not stated)
- nsP2pro inh: 11.1µM*
> O=C(O)c1ccc(CSc2nc3cccnc3n2Cc2cccc(F)c2)cc1
- nsP2pro inh: -15.8%
> Cc1nc(NC2CCCCC2)c2nc(-c3ccccc3)n(CCCN3CCOCC3)c2n1
- nsP2pro inh: -7.6%
> Cc1ccc([S+](=O)([O-])N2CCCCC23Cc2ccccc2NC3=O)cc1 (configuration not stated)
- nsP2pro inh: i

> CCCCCOc1ccc(NC(=O)Cn2c(-c3nonc3N)nc3ccccc32)cc1
- nsP2pro inh: -24.9%
> Cc1cc(C)nc(NS(=O)(=O)c2ccc(NC(=S)NC(=O)COc3ccc(Br)cc3Cl)cc2)n1
- nsP2pro inh: 43.2%[activator]
> COc1ccccc1Nc1nc(-c2sc(NC(C)=O)nc2C)cs1
- nsP2pro inh: ?
> Cc1ccc(C(=O)c2oc3ccccc3c2NC(=O)c2cc(-c3ccccc3)on2)cc1F
- nsP2pro inh: -28.1%
> CC(C)NC(=O)NC[C@H]1OC[C@@H](NCc2ncc[nH]2)[C@@H]1O
- nsP2pro inh: i
> COc1cccc(-c2cc(-c3cccs3)nc3c(C)noc23)c1
- nsP2pro inh: i
> O=C1c2ccccc2C(=O)c2ccccc21
- nsP2pro inh: -14.2%
> Cc1ccc2c(c1)Cc1c(nc(-c3ccc(Cl)cc3)nc1SCC(=O)N1CCCCC1)O2
- nsP2pro inh: -5.2%
> COC(=O)CC(O)CC(O)/C=C/c1c(C)ccc2c1C(OC(C)=O)CC(C)C2 (configuration not stated)
- nsP2pro inh: -1.8%
> CNC(=O)[C@@H]1CN(C(=O)NCc2ccc(C)cc2)C[C@H]1c1nc(C)no1
- nsP2pro inh: 4.3%
> NC(=O)CN1CCC(c2nc(-c3cn4ccccc4n3)no2)CC1
- nsP2pro inh: -0.7%
> CCN1CCN(c2ncc3c(n2)CCN(CC(C)C)C3)CC1
- nsP2pro inh: ?
> Cc1ccc(S(=O)(=O)c2nc(-c3ccccc3F)oc2NCc2ccccc2)cc1
- nsP2pro inh: -2.2%
> O=C(CSc1nc2ccccc2n1CCc1ccccc1)c1ccc(O)c(O)c1
- nsP2pro inh: -5.9%
> COC1/C=C/C(C)(O)C(SCC(N)C(=O)O)CC(=O)OC(C)C(C)CC/C=C/1C (configuration not stated)
- nsP2pro inh: -19.9%[10 µM]

> CC(C)(C)c1ccc(-c2nc(SCCCOc3ccccc3)n3[nH]c(=O)cc3n2)cc1
- nsP2pro inh: i
> COC(=O)CCc1cc2ccoc2c(OC)c1O[C@@H]1O[C@H](CO)[C@@H](O)[C@H](O)[C@H]1O
- nsP2pro inh: ?
> COc1cccc(C(=O)c2cn(CC(=O)Nc3ccc4c(c3)OCCO4)c3nc(C)ccc3c2=O)c1
- nsP2pro inh: 23.8%
> Cc1cc(C)cc(NC(=O)CSc2nc(-c3ccccc3)c3cc(F)ccc3n2)c1
- nsP2pro inh: -31.0%
> C=C1C[C@]23C[C@H]1CC[C@H]2[C@@]12CC[C@H](O)[C@@](C)(C(=O)O1)[C@H]2[C@@H]3C(=O)O
- nsP2pro inh: -8.8%
> CC(=O)NCCCS(=O)(=O)O
- nsP2pro inh: -3.0%
